ClpP mod – qHTS Assay for Activators of ClpP; ATP-dependent Clp protease proteolytic subunit (Bacillus subtilis (strain 168)), P80244; purified B. subtilis ClpP, FRET peptide cleavage, 20 min; Potency, µM (titrated, usually from 57.5 µM), for the others: top-dose activity change, negative = active; hit rate 1.9% among 340,000; active = well fitted falling curve with a large enough effect; inconclusive = small, poorly fitted or top-dose-only effect; inactive = no such curve, though single readings can be large or run the other way; further: potency means the concentration at half of the fitted maximal effect; the source files actives as falling curves though it sought activators and does not explain the sign; nearly all actives have a fitted effect of over 65% in size; many hits overshoot -100%
Target sequence (P80244 whole entry, looked up): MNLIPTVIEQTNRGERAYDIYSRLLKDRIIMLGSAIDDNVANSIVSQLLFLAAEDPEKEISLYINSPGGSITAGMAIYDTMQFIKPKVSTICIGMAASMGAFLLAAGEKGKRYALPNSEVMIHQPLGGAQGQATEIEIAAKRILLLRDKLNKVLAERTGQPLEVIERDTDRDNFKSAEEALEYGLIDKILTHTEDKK
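ClpP 10 microg/mL final, pH 8 Tris/KCl buffer with BSA, glycerol, Tween-20; compound pinned in; FRET-FV substrate; RT 20 min; Ex320/Em430; ΔFRET vs ADEP 5.8 microM, DMSO, no enzyme.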
TRPML1 inh – human mucolipin-1 channel inhibition. AID 624415. activity change, negative = inhibition, % (concentration not given with the values). TRPML1-inducible cells, Ca2+ dye fluorescence, FDSS; stronger effect = lower value; inhibition of EC80 agonist-evoked calcium signal. Q9GZU1. hit rate 0.02% among 390,000; in the data active means activity change below about -50%; inconclusive means about -30% to -50%; inactive means above about -30%;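 further: stimulus is agonist 54-4 at its EC80 concentration; on the % scale 0 is the no-effect control and ±100 the full control effect; compound concentration not given in the record; the text of the record puts the active cut at -80%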
Target sequence (Q9GZU1 whole entry, looked up): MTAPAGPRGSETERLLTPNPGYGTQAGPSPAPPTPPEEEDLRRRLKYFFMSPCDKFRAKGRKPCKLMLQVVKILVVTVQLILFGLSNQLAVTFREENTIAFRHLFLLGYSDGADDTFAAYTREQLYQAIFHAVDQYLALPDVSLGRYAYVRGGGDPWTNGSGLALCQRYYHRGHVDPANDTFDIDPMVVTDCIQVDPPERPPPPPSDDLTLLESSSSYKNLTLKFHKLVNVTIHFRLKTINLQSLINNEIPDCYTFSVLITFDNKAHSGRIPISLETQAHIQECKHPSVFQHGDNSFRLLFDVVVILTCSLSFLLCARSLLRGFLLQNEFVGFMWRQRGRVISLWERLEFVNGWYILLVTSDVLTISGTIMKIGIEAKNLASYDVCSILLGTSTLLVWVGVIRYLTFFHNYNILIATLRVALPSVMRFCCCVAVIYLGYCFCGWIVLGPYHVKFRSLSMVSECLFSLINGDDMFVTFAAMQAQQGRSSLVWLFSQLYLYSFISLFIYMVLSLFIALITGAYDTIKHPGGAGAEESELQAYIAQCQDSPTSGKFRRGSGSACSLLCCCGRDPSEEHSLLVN
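Calcium fluorescence in TRPML1-DL cells induced overnight with Tet: a 110 s read after compound pin addition, then a 110 s antagonist read after challenge with 54-4 at 4 uM final (EC80).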
The depositor's hits bear a star; ? = inconclusive. The list is partial; rates above refer to the full screens.

SMILES	ClpP mod	TRPML1 inh
COc1ccc(N2CCN(C(=O)C3CCN(S(=O)(=O)Cc4ccccc4)CC3)CC2)cc1	-3.6%	-3
COc1ccc(-c2nnc(SCC(=O)Nc3ccc(C)c(Cl)c3)nc2-c2ccc(OC)c(OC)c2)cc1OC	-16%	20
Cc1ccc(CNCc2c(C(=O)O)n(Cc3ccccc3C)c3cc(C)ccc23)cc1	1.0%	-13
CS(=O)(=O)N1CCC(n2c(C(F)(F)F)nc3cccnc32)CC1	-0.5%	?
O=C(NCc1ccccc1)c1c2c(nc3ccccc13)C(=O)N(C1CCCCC1)C2	-28%	-13
Cc1ccc(NC(=O)c2c(C)oc3ncnc(N4CCCCC4)c23)c(C)c1	-1.9%	13
Cc1cccc(NC(=O)c2ccc(-c3ccccc3)s2)c1	92%	29
CC(C)Cc1ccc(S(=O)(=O)Nc2cc3c(cc2N2CCOCC2)n(C)c(=O)c(=O)n3C)cc1	-4.5%	-12
CC(=O)c1ccc(NS(=O)(=O)c2cnc(N)nc2)cc1	-8.5%	5
CCCOc1ccc(OC(=O)c2c(-c3ccccc3Cl)noc2C)cc1	-3.2%	15
Cc1ccc(OCC(=O)Nc2nc(-c3ccc(Br)cc3)ns2)cc1	1.1%	-5
Cc1cc2n(n1)CCCN2C(=O)Nc1ccc(C)c(Cl)c1	1.1%	10
COc1ccc(-c2nn(-c3ccccc3)cc2C2NC(=O)NC(C)=C2C(=O)OC(C)C)cc1Cl (stereo not drawn)	-20%	29
COc1cccc(N2CC(NC(=O)c3cccc(OC)c3OC)CC2=O)c1 (stereo not drawn)	-14%	-7
COCCNC(=O)c1ccc2c(c1)ncn2-c1cc(C)ccc1OC	-0.6%	7
O=C(Nc1ccc(F)c(Cl)c1)C1CCCN(S(=O)(=O)c2cccc3nsnc23)C1 (stereo not drawn)	-4.2%	8
O=C1CC(c2cc(F)cc(F)c2)c2cc3c(cc2N1)OCO3 (stereo not drawn)	-0.2%	3
Cc1ccc(NC(=O)C2CCC(CNS(=O)(=O)c3csc(C(N)=O)c3)CC2)cc1Cl (stereo not drawn)	-0.8%	7
COc1ccc(NC(=O)C2CCN(C(=O)c3sc4nc[nH]c(=O)c4c3C)CC2)cc1Cl	-1.1%	4
Cn1c(=O)oc2cc(S(=O)(=O)NCCC(=O)Nc3ccc(F)cc3F)ccc21	-0.1%	22
COCCCNC(=O)CN1C(=O)c2cccnc2Sc2ccccc21	0.7%	8
COc1ccc(-c2noc(CNC(=O)c3ccco3)n2)cc1	-1.1%	-2
CCOc1ccc(N2CC(c3nc4ccccc4n3Cc3cccc(C)c3)CC2=O)cc1 (stereo not drawn)	-3.4%	19
CCc1ccc(NC(=O)CSC2=Nc3ccccc3C3=NC(CC(=O)NCc4ccccc4)C(=O)N23)cc1 (stereo not drawn)	-1.7%	28
COCCCNC(=O)C1CCC(Cn2c(=O)c3sccc3n(C)c2=O)CC1 (stereo not drawn)	0.1%	-11
CCOC(=O)C1CCN(C(=O)CSc2n[nH]c(-c3ccc(F)cc3)n2)CC1	-0.3%	-9
Cc1ccc(OCc2cc(=O)n3cc(C)sc3n2)c(C)c1	-0.5%	11
CCNC(=O)c1ccc2c(c1)sc1nc(-c3cccc(OC)c3)cn12	4.4%	-3
CCOc1ccccc1C(=O)Nc1cc2c(cc1N1CCCCC1)n(C)c(=O)n2C	?	29
CC(=O)c1ccc(NC(=O)c2noc3c2CCc2ccccc2-3)cc1	-0.4%	-21

Five compounds already listed, ordered by formula weight, rising:
SMILES	ClpP mod	TRPML1 inh
Cc1ccc(OCc2cc(=O)n3cc(C)sc3n2)c(C)c1	-0.5%	11
COCCCNC(=O)CN1C(=O)c2cccnc2Sc2ccccc21	0.7%	8
CCOC(=O)C1CCN(C(=O)CSc2n[nH]c(-c3ccc(F)cc3)n2)CC1	-0.3%	-9
CCOc1ccccc1C(=O)Nc1cc2c(cc1N1CCCCC1)n(C)c(=O)n2C	?	29
CCOc1ccc(N2CC(c3nc4ccccc4n3Cc3cccc(C)c3)CC2=O)cc1 (stereo not drawn)	-3.4%	19

The list goes on:
SMILES	ClpP mod	TRPML1 inh
CCOCCCNC(=O)c1c(NC(=O)Cc2coc3ccc(C)cc23)sc2c1CCC2	?	17
CCN1CCN(CCCNC(=O)Cn2c(-c3cccs3)cc3cc(Cl)ccc32)CC1	32µM*	15
COc1ccc(C(CNC(=O)c2oc3ccc(C)cc3c2C)N2CCOCC2)cc1 (stereo not drawn)	0.0%	20
CCCCNC(=O)C1CCC(CNS(=O)(=O)c2ccc(Cl)cc2)CC1 (stereo not drawn)	-3.8%	6
COc1ccc2c(c1)c(=O)c(C(=O)c1ccc(Cl)cc1)cn2CC(=O)Nc1ccc2c(c1)OCO2	-0.2%	21
CC(=O)Nc1ccc(S(=O)(=O)NC2=NCN(C(C)C)CN2)cc1	-2.0%	4
O=C(Cc1ccc(Cl)cc1)NCCc1csc2nc(-c3ccccc3F)nn12	0.1%	4
COc1ccc(NC(=O)CSc2nc(-c3ccccc3)nc3cc(=O)[nH]n23)cc1	0.8%	-3
CCc1ccc(S(=O)(=O)NCc2nc3cccnc3n2Cc2ccccc2Cl)cc1	0.6%	8
Cc1ccccc1OCC(=O)OCc1cc(=O)n2ccsc2n1	-9.7%	-13
Cc1ccc2c(CNCc3ccc(C)o3)c(C(=O)O)n(Cc3ccc(F)cc3)c2c1	-25%	23
Cc1ccc(S(=O)(=O)c2nnn(CC(=O)Nc3ccccc3C)c2N)cc1C	-0.3%	22
O=C(CN1C(=O)c2cccc3cccc1c23)Nc1ccccc1Br	1.8%	5
CCOc1cccc(CC(=O)N2CCc3c([nH]c4ccccc34)C2c2ccc(Cl)cc2)c1OCC (stereo not drawn)	0.0%	-16
COc1ccc(Cn2ccnc2SCC(=O)NCc2ccco2)cc1	-2.3%	12
CN(C)c1ccc(C(CNC(=O)COc2ccccc2)N2CCOCC2)cc1 (stereo not drawn)	1.7%	5
CC1CCN(c2nc3ccc(C(=O)NCc4ccccc4)cc3s2)CC1	-30%	25
COc1ccc(Cl)cc1NC(=O)CSC1=Nc2ccccc2C2=NC(CCC(=O)NCc3ccc(F)cc3)C(=O)N12 (stereo not drawn)	-10%	-11
O=C(CSc1n[nH]c(-c2ccccc2Cl)n1)N1CCN(c2ccccc2)CC1	1.1%	-20
O=C(NCc1ccc(F)cc1)c1[nH]c(C(F)(F)F)nc1-c1ccccc1	-1.7%	8
O=S(=O)(Nc1ccc(C(O)(C(F)(F)F)C(F)(F)F)cc1)c1cccc2ccccc12	-0.7%	2
COc1ccc(N2Cc3cccc(C(=O)Nc4cc(C)cc(C)c4)c3C2=O)cc1	-4.4%	-8
COc1cc2c(cc1OC)C(COc1ccc3c(C)cc(=O)oc3c1)N(C(=O)c1cc(Cl)ccc1OC)CC2 (stereo not drawn)	-3.9%	-12
COc1ccc(/C=C\c2onc(C)c2S(=O)(=O)N2CCC(C(=O)Nc3cccc(C)c3C)CC2)cc1	-2.3%	3
Cc1ccc(S(=O)(=O)c2nnn3c2nc(N(C)Cc2ccccc2)c2cc(Cl)ccc23)cc1C	?	5
Cc1ccc(-c2cn3c(n2)sc2cc(C(=O)NCCCN4CCCCCC4)ccc23)cc1	?	-14
COc1ccc(Cl)cc1NC(=O)N1CCN(S(=O)(=O)c2ccc3c(ccn3C)c2)CC1	-8.1%	-3
CCOc1ccc(NC(=O)Cn2c(=O)n(CC(=O)NCc3ccccc3Cl)c(=O)c3sccc32)cc1	-0.4%	-1
Cc1cccc(N2CCN(C(=O)CN3C(=O)COc4ccc(S(=O)(=O)N5CCC(C)CC5)cc43)CC2C)c1 (stereo not drawn)	-0.8%	15
Cc1ccc(-c2nnc(SCC(=O)c3ccc(Cl)cc3)n2-c2ccccc2)cc1	-2.9%	10

Of the compounds above, these have a COOH group:
SMILES	ClpP mod	TRPML1 inh
Cc1ccc(CNCc2c(C(=O)O)n(Cc3ccccc3C)c3cc(C)ccc23)cc1	1.0%	-13
Cc1ccc2c(CNCc3ccc(C)o3)c(C(=O)O)n(Cc3ccc(F)cc3)c2c1	-25%	23

Continuation.
SMILES	ClpP mod	TRPML1 inh
O=C(Nc1ccc(F)cc1)c1ccc(Cn2nc(N3CCN(c4ccccc4)CC3)ccc2=O)o1	-0.2%	1
CC(=O)c1cc(-c2ccccc2)n(CC(=O)NCCc2ccc(C)cc2)c1C	2.0%	-3
COc1ccc(Cl)cc1NS(=O)(=O)c1ccc2c(c1)NC(=O)CC(=O)N2	1.7%	-9
CC(C)CN(CCCNC(=O)c1cc(=O)[nH]c2ccc(S(=O)(=O)N3CCCC3)cc12)CC(C)C	-10%	11
COc1cccc(C2C=C(c3ccccc3)Nc3c(C(=O)Nc4ccccc4)cnn32)c1OC (stereo not drawn)	0.2%	21
Cc1nnc(N2CCC(C(=O)NCCc3ccccc3)CC2)c2nn(-c3ccc(Cl)cc3)c(C)c12	-13%	33
COc1ccc(OC)c(NC(=O)CSC2=Nc3ccccc3C3=NC(CC(=O)NCc4ccc(F)cc4)C(=O)N23)c1 (stereo not drawn)	-5.5%	10
COc1ccc(N2C(=O)CS(=O)(=O)C23C(=O)N(Cc2ccccc2F)c2ccccc23)cc1Cl (stereo not drawn)	1.7%	-8
CN(c1cccc(F)c1)c1cc2c(c3c1ccn3C)C1CCC2O1 (stereo not drawn)	-27%	3
Cc1ccc(Cl)cc1-n1c(=O)c2sc3ccccc3c2n(CC(=O)NC2CCCC2)c1=O	4.1%	18
CCOc1ccc(C(=O)Nc2cccc(-c3nc4cc(Cl)cc(Cl)c4o3)c2)cc1	0.7%	8
COC(=O)c1c(NC(=O)COc2c(C)cccc2C)sc2c1CCCC2	-28%	2
CCN1CCN(CCCNC(=O)c2ccc3nc(Cc4ccc(OC)cc4)oc3c2)CC1	-1.1%	4
CC1CCC(NC(=O)c2ccc3c(c2)N(Cc2cccc(Cl)c2)C(=O)c2ccccc2S3(=O)=O)CC1 (stereo not drawn)	-2.2%	-10
CCOc1ccc(CCNC(=O)Cn2ncc3c([nH]c4ccccc43)c2=O)cc1OCC	-4.2%	2
Cc1nn(-c2ccccc2)c2nc(C3CC3)cc(C(=O)Nc3cccc(F)c3)c12	4.9%	-8
COc1ccc(-c2cc3ccc(O)c(CN4CCC(C)CC4)c3oc2=O)cc1	3.9%	14
COc1ccc2cc(-c3nc(-c4ccc(N(C)C)cc4)no3)c(=O)oc2c1	-7.7%	-8
COc1cccc(CNC(=O)c2cc(C)nc3c2c(C)nn3-c2cccc(F)c2)c1	4.4%	-1
O=C(Nc1ccc2c(c1)CCCN2C(=O)c1cccs1)c1ccccc1Cl	-3.5%	-12

Overlap with the part before: three entries, followed by the next part.
SMILES	ClpP mod	TRPML1 inh
COc1ccc2cc(-c3nc(-c4ccc(N(C)C)cc4)no3)c(=O)oc2c1	-7.7%	-8
COc1cccc(CNC(=O)c2cc(C)nc3c2c(C)nn3-c2cccc(F)c2)c1	4.4%	-1
O=C(Nc1ccc2c(c1)CCCN2C(=O)c1cccs1)c1ccccc1Cl	-3.5%	-12
Cn1nnnc1SCCNCc1ccccc1OCc1ccccc1F	-0.4%	1
CCCN1CCN(C(=O)Cn2c(-c3cccs3)cc3cc(F)ccc32)CC1	4.2%	9
O=C(Nc1cccc(F)c1)c1ccc2snnc2c1	0.3%	-4
CCc1ccc(C2C(C(=O)Nc3ccccc3)=C(C)Nc3nc(SCC(=O)c4ccc(C)cc4)nn32)cc1 (stereo not drawn)	0.6%	-6
CCOc1ccc(N2CC(c3nc4ccccc4n3CCOc3ccccc3)CC2=O)cc1 (stereo not drawn)	-0.8%	41
O=c1oc2ccccc2cc1-c1nnc(Nc2ccc(Cl)cc2Cl)s1	-4.9%	-1
CCc1nc2ccc(C(=O)NCc3ccc(OC)c(OC)c3)cc2nc1CC	-3.6%	11
O=C(NCc1ccc(Cl)cc1)c1cc(-c2ccc(F)cc2)on1	1.8%	12
O=C(Nc1ccc(O)cc1)c1cccc(S(=O)(=O)N2CCOCC2)c1	-2.9%	-4
Clc1ccccc1CNc1nc2ccccc2c2nc(-c3cccnc3)nn12	-2.7%	6

Brought forward from above: 2 compounds, followed by the next part.
SMILES	ClpP mod	TRPML1 inh
O=C(Nc1ccc(O)cc1)c1cccc(S(=O)(=O)N2CCOCC2)c1	-2.9%	-4
Clc1ccccc1CNc1nc2ccccc2c2nc(-c3cccnc3)nn12	-2.7%	6
CCN(CC)C(=O)c1sc2c(c1C)c(=O)n(-c1ccc(Cl)c(Cl)c1)c(=O)n2Cc1cc(=O)n2ccccc2n1	?	-7
Cc1ccc(CSc2nnc([C@@H](N)C(C)C)o2)cc1	1.9%	7
COc1ccc(CCn2c(=O)c3ccccc3n(CC(=O)Nc3cccc(C)c3)c2=O)cc1OC	16%	-14
O=C(NCCc1ccccc1)c1ccc2c(c1)N(Cc1ccc(Cl)cc1)C(=O)c1ccccc1S2(=O)=O	-13%	-12
CCOc1ccc(NC(=O)CSc2nc(=O)[nH]c3c2CCC3)cc1	-3.1%	17
Cc1ccc(N2C(=O)CSC23C(=O)N(CC(=O)NC2CCCCC2)c2ccccc23)cc1C (stereo not drawn)	-0.5%	23
COc1ccc(-c2nc(CSc3nnc(C)n4c3cc3oc(C)cc34)c(C)o2)cc1OC	-16%	10
Cc1ccc(O)c(NC(=O)COCc2cc(-c3ccco3)on2)c1	0.7%	19

Assay outcomes from PubChem.
